StopGo reporter = FMDV 2A StopGo reporter, luciferase signal; human cells with a luciferase reporter of 2A StopGo recoding; control for the full effect not named in the record; AID 1159524; 410,000 tested, 1.2% active; Potency, µM (highest dose often 57.9 µM), for inactives: at the highest dose signal change, negative = less light; active = well fitted falling curve with a large enough effect; inconclusive = small, poorly fitted or top-dose-only effect; inactive = no such curve, though single readings can be large or run the other way; tested in HEK293T cells; further: on the % scale 0 is the no-effect control and ±100 the full control effect; nearly all actives have a fitted effect of over 45% in size; luciferase light after 4 h
MARV entry inh = inhibitors of Marburg virus binding or cell entry; Marburg virus pseudotyped entry inhibition, cell reporter; control for the full effect not named in the record; about a third of the inactives were read at about 46 µM; Potency, µM (highest dose often 37.8 µM), for inactives: at the top dose activity change, negative = inhibition, hits mostly inhibitors; 300,000 tested, 1.8% active; active = well fitted inhibition curve with a large enough effect; inconclusive = small, poorly fitted or top-dose-only effect, or effect the other way; inactive = flat fitted curve, though single readings scatter; tested in HEK293 cells; about a fifth of its hits are not listed in these tables; further: on the % scale 0 is the no-effect control and ±100 the full control effect; luciferase read-out
LASV entry inh = inhibitors of Lassa virus binding or cell entry; Potency, µM (doses to about 37.9 µM), without a hit: top-dose activity change, negative = inhibition, usual class: inhibitors; Lassa virus pseudotype entry inhibition, cell reporter; control for the full effect not named in the record; AID 540256; 300,000 tested, 1.2% active; active means well fitted inhibition curve with a large enough effect; inconclusive means small, poorly fitted or top-dose-only effect, or effect the other way; inactive means flat fitted curve, though single readings scatter; tested in HEK293 cells; further: on the % scale 0 is the no-effect control and ±100 the full control effect; nearly all actives have a fitted effect of over 50% in size; luciferase read-out
NS1 function inh = influenza NS1 inhibition. S. cerevisiae slowed by influenza A NS1, growth recovery by OD600. Potency, µM (titrated, usually from 46.1 µM), inactives show at the highest dose activity, positive = more growth. 270,000 tested, 0.4% active. AID 2326; active means well fitted rising curve with a large enough effect; inconclusive means small, poorly fitted or top-dose-only effect; inactive means no such curve, though single readings can be large or run the other way; further: nearly all actives have a fitted effect of over 50% in size
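Recovery from NS1-induced slow growth read by OD600 in budding yeast switched to galactose assay medium (pH 6.0, -URA) at 1:100 dilution. Compound 23 nl per well; the matching strain lacking NS1 serves as control.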
Cruzain inh noDet = cruzain (T. cruzi) inhibition without detergent; P25779; purified cruzain, Z-FR-AMC fluorescence, no detergent; Potency, µM, without a hit: max response, negative = inhibition, usual class: inhibitors; 200,000 tested, 2.3% active;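 further: plate controls were enzyme without inhibitor for no effect and buffer without enzyme for full effect; nearly all actives have a fitted effect of over 40% in size; top concentration of the series not given in the record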
Target sequence (P25779 123-467 limits assumed): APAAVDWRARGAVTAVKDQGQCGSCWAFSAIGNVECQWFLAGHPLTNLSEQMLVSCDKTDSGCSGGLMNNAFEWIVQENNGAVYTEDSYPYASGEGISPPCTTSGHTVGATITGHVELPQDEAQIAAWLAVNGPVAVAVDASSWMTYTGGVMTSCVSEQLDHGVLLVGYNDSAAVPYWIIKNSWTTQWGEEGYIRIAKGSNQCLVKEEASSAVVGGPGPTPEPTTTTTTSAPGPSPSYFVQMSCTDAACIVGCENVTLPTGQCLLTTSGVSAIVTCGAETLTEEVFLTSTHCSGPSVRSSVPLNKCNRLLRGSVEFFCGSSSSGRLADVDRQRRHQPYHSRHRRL
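Detergent-free condition (0.00005% Triton X-100) in acetate buffer pH 5.5 with DTT. 1.5 nM enzyme and compound were pre-mixed 15 min, then 2 uM Z-FR-AMC substrate added; reaction progress from fluorescence change between first and third reads (60 s).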
RE007 growth inh = less growth of the S. pombe RE007 Vpr strain; S. pombe RE007 Vpr strain, BacTiter-Glo ATP luminescence, 24 h; control for the full effect not named in the record; Potency, µM (titrated, usually from 92.2 µM), for inactives: at the top dose activity change, negative = less growth; 360,000 tested, 0.21% active; active = well fitted falling curve with a large enough effect; inconclusive = small, poorly fitted or top-dose-only effect; inactive = no such curve, though single readings can be large or run the other way;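 further: on the % scale 0 is the no-effect control and ±100 the full control effect; nearly all actives have a fitted effect of over 50% in size; the assay follows cell death caused by Vpr and the record does not say whether a fall means rescue or toxicity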
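Fission yeast RE007 carrying one integrated HIV-1 vpr copy, seeded at OD 0.01 in PMG+AL medium with 23 nL pinned compound. Grown 24 h at 30 degrees; viability read by BacTiter-Glo luminescence after 5 min.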
Cruzain Triton = inhibitors of Trypanosoma cruzi cruzain with detergent | AID 1478 | purified cruzain, Z-FR-AMC fluorescence, 0.01% Triton | P25779 | Potency, µM, for the others: max response, negative = inhibition, usual class: inhibitors | 200,000 tested, 0.43% active;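 further: plate controls were neutral wells for no effect and buffer without enzyme for full effect; nearly all actives have a fitted effect of over 40% in size; top concentration of the series not given in the record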
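Detergent-containing run (0.01% Triton X-100) in acetate buffer pH 5.5 with 5 mM DTT: enzyme at 1.5 nM final, 15 min compound preincubation at room temperature, then 2 uM Z-FR-AMC substrate. Activity taken as 60 s fluorescence increase at 360/450 nm.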
SARS PLpro yeast = blocks SARS-CoV papain-like protease in a yeast assay; S. cerevisiae expressing SARS-CoV PLpro, growth rescue; control for the full effect not named in the record; Potency, µM (doses to about 32.9 µM), inactives show at the top dose activity, positive = growth rescue; 330,000 tested, 0.19% active; AID 485353; active means well fitted rising curve with a large enough effect; inconclusive means small, poorly fitted or top-dose-only effect; inactive means no such curve, though single readings can be large or run the other way; further: 0% is about no effect; nearly all actives have a fitted effect of over 55% in size; growth read by luminescence after 48 h
Active calls of the source: *; ? = inconclusive; · = no result given; & = joins results of further samples; [ ] = another dose, or the depositor's remark. Unless noted, the call rests on the fitted dose curve; in most records, active means well fitted curve in the direction sought with a large enough effect; inconclusive means small, poorly fitted or top-dose-only effect, or another doubt; inactive means no such curve, though single readings can be large; an effect the other way counts as inactive or inconclusive. Potency means the concentration at half of the fitted maximal effect.

| smiles | StopGo reporter | Cruzain Triton | SARS PLpro yeast | Cruzain inh noDet | LASV entry inh | NS1 function inh | MARV entry inh | RE007 growth inh |
| --- | --- | --- | --- | --- | --- | --- | --- | --- |
| Cc1ccc2c(C)c(C(=O)Nc3cccnc3)oc2c1 | 30% | -7.7% | -11% | -24% | -11% | -6% | ? | -15% |
| Cc1ccc(C)c2[nH]c(=O)c(CN(Cc3ccco3)C(=S)NCC3CCCO3)cc12 (stereo not given) | 1% | · | -1% | · | -4% | 7% | -8%[46.1 µM] | -9% |
| OC(CN=c1sc2ccccc2n1CC(O)COc1ccccc1)COc1ccccc1 (stereo not given) | 20µM* | -10% | -18% | ? | 21µM* | -7% | ? | 29% |
| CC(=O)c1ccc(Nc2nc(-c3ccccc3)nc3ccccc23)cc1 | -27% | · | · | · | -1%[46.1 µM] | · | -6%[46.1 µM] | 16% |
| CCN(CC(=O)Nc1ccccc1OC)C(=O)c1ccc(NS(=O)(=O)c2ccc(C(C)=O)cc2)cc1 | 158µM* | · | -7% | · | 0% | -16% | 4%[46.1 µM] | -13% |
| CCOC(=O)NNC(=O)C1CCC(C)CC1 (stereo not given) | -8%&-6% | -0.9% | 9% | 2% | -6%&0%[46.1 µM] | · | 7%&12%[46.1 µM] | 6% |
| O=C(/C=C\Nc1ccc2c(c1)OCO2)c1cccs1 | 10µM* | · | -3% | · | ? | -37% | ? | ? |
| CCN(c1ccc(NC(=O)COC(=O)c2cc3ccccc3oc2=O)cc1)C(C)C | 10% | · | 0% | · | 17% | · | 6%[46.1 µM] | -3% |
| O=C(CCc1ccccc1)NCC1(c2ccccc2)CCCC1 | -21% | · | 1% | · | ? | -8% | 5.6µM* | 16% |
| CCOc1ccccc1OCC(=O)Nc1ccc(Cl)cc1C(=O)c1ccccc1 | -23% | -7.6% | 14% | 2% | -2% | 5% | -18% | 4% |
| O=C(CSc1nnc(COc2ccc(Cl)cc2)n1Cc1ccco1)c1ccccc1F | 10% | -16% | -1% | -8% | -15% | -4% | -10%&-10% | 0% |
| COc1cccc(-n2nnc3c(=O)n(C/C=C/c4ccccc4)cnc32)c1 | ? | 1.1% | -2% | -12% | · | -7% | · | 0% |
| O=C(c1ccccc1Nc1ccc(SC(F)F)cc1)N1CCCCC1 | ? | -6.9% | -25% | 5% | 13% | -78% | 1% | ? |
| Cc1ccc(NC(=O)CN2CCN(C)CC2)cc1S(=O)(=O)N1CCOCC1 | -25% | · | 0% | · | -1% | · | 0%[46.1 µM] | -13% |
| CCCCSc1nc2c(c(=O)[nH]c(=O)n2C)n1CCc1ccccc1 | -28% | -6.2% | 1% | -17% | · | -3% | · | 4% |
| Cc1noc(C)c1C(=O)OCC(=O)Nc1c(F)cccc1F | 4% | · | 1% | · | -8% | · | 4% | -8% |
| COCC1CCCCN1C(=O)c1ccc(OC2CCN(CCc3ccccc3)CC2)cc1 (stereo not given) | -9% | · | 3% | · | · | -8% | · | -3% |
| CS(=O)(=O)c1ccccc1-c1nnc(NC(=O)Cc2ccccc2)o1 | 1% | · | -1% | · | · | 5% | · | 19% |
| CCc1[nH]nc2c1C(c1ccsc1)C(C#N)=C(N)O2 (stereo not given) | -25% | -2.6% | -40% | -4% | -15% | -13% | ? | ? |
| COc1ccc(NC(=O)CCNC(=O)c2ccccc2)cc1S(N)(=O)=O | 36%[activator] | · | -1% | · | 1% | 3% | 6% | 17% |
| Cc1ccccc1N1CC(O)(c2ccccc2)[N+]2=C1SCC2 (stereo not given) | 0% | 0.7% | 24% | -4% | -1% | -10% | ? | -10% |
| CN(c1ccccc1)S(=O)(=O)c1cccc(NC(=O)Cn2cnc3ccccc3c2=O)c1 | ? | 2.4% | 7% | -15% | ? | -4% | -16% | -6% |
| O=C(COC(=O)c1ccccn1)NC1CCCCC1 | 6% | 1.4% | 4% | -3% | ? | -6% | -6% | 0% |
| O=C(OCC(=O)N1CCN(C(=O)c2ccco2)CC1)c1cc(F)c(F)cc1Cl | 5% | · | -26% | · | 2%[46.1 µM] | · | 3%[46.1 µM] | 2% |
| CCOP(=O)(OCC)C(O)c1ccc(N(C)C)cc1 (stereo not given) | -3% | · | 4% | · | 2% | 1% | -12%[46.1 µM] | -3% |
| CC1CN(C(=O)C(C)Sc2nnnn2C)CC(C)O1 (stereo not given) | -7% | · | 8% | · | 23%[46.1 µM] | · | 29%[46.1 µM] | -11% |
| COCCN(CC(=O)Nc1cccc(C)c1C)C(=O)c1ccc2ccccc2n1 | 35%[activator] | · | -19% | · | 20% | · | ? | -4% |
| CC(C)c1ccc(C(=O)N2CCCN(C(=O)c3ccc(C(C)C)cc3)CC2)cc1 | -29% | -3.8% | 16% | ? | ? | 18% | ? | 4% |
| CCc1ccc(CC)c(S(=O)(=O)Nc2ccc(C(=O)O)c(O)c2)c1 | 3% | -2.6% | 8% | -15% | 1% | ? | 27% | 7% |
| COc1cccc(NC(=O)CSc2nnc(COc3ccc4c(c3)CCCC4)o2)c1 | 10% | -1.3% | 3% | 14% | 15% | 6% | -1%&-16% | -9% |

Filtered by structure: the compounds so far containing an NH in an aromatic ring (3)
| smiles | StopGo reporter | Cruzain Triton | SARS PLpro yeast | Cruzain inh noDet | LASV entry inh | NS1 function inh | MARV entry inh | RE007 growth inh |
| --- | --- | --- | --- | --- | --- | --- | --- | --- |
| Cc1ccc(C)c2[nH]c(=O)c(CN(Cc3ccco3)C(=S)NCC3CCCO3)cc12 (stereo not given) | 1% | · | -1% | · | -4% | 7% | -8%[46.1 µM] | -9% |
| CCCCSc1nc2c(c(=O)[nH]c(=O)n2C)n1CCc1ccccc1 | -28% | -6.2% | 1% | -17% | · | -3% | · | 4% |
| CCc1[nH]nc2c1C(c1ccsc1)C(C#N)=C(N)O2 (stereo not given) | -25% | -2.6% | -40% | -4% | -15% | -13% | ? | ? |

(further entries)
| smiles | StopGo reporter | Cruzain Triton | SARS PLpro yeast | Cruzain inh noDet | LASV entry inh | NS1 function inh | MARV entry inh | RE007 growth inh |
| --- | --- | --- | --- | --- | --- | --- | --- | --- |
| COc1ccc(C(C(=O)NC2CCCCC2)N(C(=O)c2ccco2)c2ccccc2OC)cc1 (stereo not given) | 8% | · | 2% | · | ? | 8% | ? | 8% |
| N=c1oc2ccc3ccccc3c2cc1C(N)=S | -1% | · | 0% | · | -2% | 7% | -29% | -13% |
| O=C(CN1C(=O)S/C(=C\c2ccccn2)C1=O)Nc1ccc(F)cc1 | -24% | · | -1% | · | -2%[46.1 µM] | 3% | -19%[46.1 µM] | 3% |
| Cc1ccc(-n2c(O)c(C=NC3CCCCC3N)c(=O)[nH]c2=O)cc1C (stereo not given) | -23% | -2.0% | -3% | 25% | -10% | 8% | -24% | 5% |
| O=C1C(=O)N(C2CCS(=O)(=O)C2)C(c2cccc(O)c2)/C1=C(/O)c1ccc(Cl)cc1 (stereo not given) | -18% | · | 0% | · | · | 9% | · | 4% |
| Cc1ccc(CNC(=O)CCS(=O)(=O)c2ccc3c(c2)CC(C)N3C(=O)C2CC2)o1 (stereo not given) | -7% | · | 5% | · | · | 6% | · | 21% |
| O=C(c1ccco1)N1N=C(C2CCCCC2)CC1(O)C(F)(F)F (stereo not given) | -14% | · | 0% | · | -16% | 1% | -3%[46.1 µM] | -4% |
| CCOC(=O)C1CCN(C(=O)c2ccc(Br)o2)CC1 | -24% | 6.8% | 0% | -8% | -2% | 0% | 5% | 2% |
| CC(=O)c1cc(C(=O)c2ccccc2)sc1Nc1ccccc1 | 40%[activator] | -8.7% | -4% | -6% | 3% | -15% | 0% | 4% |
| CCOC(=O)c1cnc(Nc2ccccc2)nc1C(F)(F)F | 27% | · | -7% | · | ? | -7% | ? | -24% |
| Cn1c(C(=O)N[C@@H](C(=O)O)c2ccccc2)cc2cc(Cl)ccc21 | -16% | · | 1% | · | 19%[46.1 µM] | 2% | 5%[46.1 µM] | 17% |
| CS(=O)(=O)c1ccc(Cl)c(NC(=O)Nc2ccccc2)c1 | 25% | · | 0% | · | · | -1% | · | -3% |
| CCN(CC)CCN(C(=O)c1ccco1)c1nc2ccc(F)cc2s1 | 28% | -2.9% | · | 7% | 0%[46.1 µM] | · | · | · |
| COc1cccc(C(=O)NCC2CCCN(C3CCCCC3)C2)c1OC (stereo not given) | 19% | · | 0% | · | · | 2% | · | 8% |
| Cc1ncoc1C(=O)N1CCCC(C(=O)c2ccc3c4c(cccc24)CC3)C1 (stereo not given) | 0% | · | -1% | · | -20%[46.1 µM] | 4% | 3%[46.1 µM] | -5% |
| CCC(CC)C(=O)Nc1cccc(/C(C)=N/NC(=O)c2c(Br)cnn2C)c1 | -5% | -0.8% | 8% | 2% | -3% | -22% | -3% | 22% |
| Cc1cc(C(F)(F)F)n2nc(-c3ccc(Br)cc3)cc2n1 | 28% | -1.8% | · | 6% | 3%[46.1 µM] | · | 4%[46.1 µM] | · |
| O=C(CC1C(=O)NCCN1Cc1cccc(F)c1)NC1CCCCC1 (stereo not given) | 8% | · | 10% | · | 0% | 14% | -9% | 3% |
| COc1ccccc1Cn1c(=S)[nH]c2ccc(F)cc2c1=O | -2% | · | 1% | · | 20%[46.1 µM] | 1% | 6%[46.1 µM] | 1% |
| CCn1c(SCC(=O)Nc2ccc3c(c2)OCO3)nnc1C1CC1 | -14% | · | 1% | · | 14%[46.1 µM] | -1% | 21%[46.1 µM] | -12% |
| Cc1nc2ccccc2nc1OCC(=O)NCc1ccc2c(c1)OCO2 | -14% | -4.7% | 1% | -5% | ? | 3% | -20% | -26% |
| COc1cccc(/C=N/NC(=O)c2[nH]nc3c2CCc2ccccc2-3)c1 | -16% | · | -2% | · | ? | -6% | ? | -8% |
| CC(=O)Oc1ccc(C(=O)Nc2nnc(C)s2)cc1 | ? | 1.7% | 1% | 2% | 1% | -3% | 4% | 48% |
| COC(=O)C1=C(\O)CCCC/C=C\1C(=O)O | -13% | · | · | · | 15%[46.1 µM] | · | 11% | 10% |
| COc1cc2c(oc(=O)c3cc(C)cc(OC)c32)c2c(C3OC(C)C(O)C(C)(O)C3O)ccc(O)c12 (stereo not given) | 0% | · | · | · | ? | · | ? | -16% |

Compound activity: PubChem, National Center for Advancing Translational Sciences (NCATS)
